# Compound activity from PubChem.
# VDR inh – Inhibitors of the vitamin D receptor (VDR): qHTS; VDR-SRC2-3 peptide fluorescence polarization, 2 h; Potency, µM, without a hit: max response, negative = inhibition, actives largely listed as inhibitors; Vitamin D3 receptor (Homo sapiens), P11473; hit rate 0.93% among 400,000; active = well fitted inhibition curve with a large enough effect; inconclusive = small, poorly fitted or top-dose-only effect, or another doubt; inactive = no such curve, though single readings can be large or run the other way; also: series mostly up to about 120 µM
# Target sequence (P11473 whole entry, looked up): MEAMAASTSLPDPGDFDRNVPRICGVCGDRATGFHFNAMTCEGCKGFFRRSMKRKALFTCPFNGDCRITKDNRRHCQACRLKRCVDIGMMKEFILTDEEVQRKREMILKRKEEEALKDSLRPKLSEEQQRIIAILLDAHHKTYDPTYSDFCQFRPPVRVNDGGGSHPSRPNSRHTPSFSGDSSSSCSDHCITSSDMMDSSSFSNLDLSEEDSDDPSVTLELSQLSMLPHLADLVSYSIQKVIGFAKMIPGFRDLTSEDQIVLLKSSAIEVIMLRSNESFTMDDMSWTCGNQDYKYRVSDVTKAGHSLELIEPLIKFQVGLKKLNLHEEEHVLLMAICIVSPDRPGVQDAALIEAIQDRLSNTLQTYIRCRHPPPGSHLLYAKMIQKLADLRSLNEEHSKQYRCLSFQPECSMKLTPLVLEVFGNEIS
#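 Two reagent solutions held at 4 deg C in the dark were dispensed, compounds pinned at 23 nl, and the mixture incubated 2 h at room temperature. Read-out: fluorescence polarization of VDR–SRC2-3 peptide binding.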
# The depositor's hits bear a star; ? = inconclusive; & = joins results of further samples. % is scaled to controls: 0 for no effect and ±100 for the full control effect; potency is read from the fitted curve at half-maximal effect. Not all compounds are listed, so the mix of outcomes need not match the whole.
No.	VDR inh	canonical_smiles
1	14%	COc1ccc(N2C(=O)C3CCCCC3C2=O)cc1NC(=O)c1ccccc1 (centres undefined)
2	1%	O=C(Nn1c(-c2ccc(F)cc2)nc2ccccc2c1=O)C1CCCCC1
3	-14%	Cc1ccc(N=Nc2c(N)n[nH]c2N)cc1
4	-7%	O=C(CNc1ccc2c(c1)OCO2)N/N=C\c1ccccc1Cl
5	-9%	Cc1ccc(C(=O)Nc2ccc(S(=O)(=O)N3CCOCC3)cc2)cc1C
6	9%	COC(=O)CCC/C=C1/SCC(NC(=O)c2ccccc2)C1NC(C)=O (centres undefined)
7	10%	Cc1ccc(S(=O)(=O)N2CCOCC2)cc1NC(=O)C(c1ccc(Cl)cc1)C(C)C (centres undefined)
8	-14%	CCN(CCCNC(=O)c1cc2cc3cc(OC)ccc3nc2s1)c1cccc(C)c1
9	2%	c1ccc2c(c1)nc(NC1CCCCC1)c1nncn12
10	1%	CCC(CC)c1nn2cc(-c3ccccc3)nc2s1
11	-8%	Cc1cc(C)c(C)c(S(=O)(=O)NCc2ccc(C(=O)N3CCOCC3)cc2)c1C
12	-3%	CCOc1ccc2nc(N(CCN(CC)CC)C(=O)c3ccc([N+](=O)[O-])cc3)sc2c1
13	-13%	O=C(Cc1ccc(NC(=O)C2CCCN(C(=O)C3CCCC3)C2)cc1)Nc1ccc(C(=O)N2CCOCC2)cc1 (centres undefined)
14	-3%	Cn1cccc1C(=O)N1CCC2(CCCN(Cc3ccncc3)C2)CC1
15	-11%	Cc1cccc(C(=O)NNC(=O)c2ccc(-c3ccccc3)cc2)c1
16	2%	COCC(COCCCNC(=O)Nc1ccc(Br)cc1)OC (centres undefined)
17	5%	COc1cc(-c2noc(-c3ccc(N4CCN(C)CC4)c([N+](=O)[O-])c3)n2)cc(OC)c1OC
18	-27%	COc1cc(C(=O)N/N=C/c2coc3ccccc3c2=O)cc(OC)c1OC
19	-17%	O=C(COC(=O)C1CC1)Nc1nc(-c2ccc(F)c(F)c2)cs1
20	-14%	Cc1cnc(NC(=O)Nc2ccccc2)c(C)n1
21	-8%	COc1cccc(C=O)c1OCCCOc1cccc2cccnc12
22	6%	NC(=O)COc1ccc(C23CC4CC(CC(C4)C2)C3)cc1
23	17%	CC(C)P(=O)(Cc1cccc(C#N)c1)C(C)C
24	16%	COc1cccc(OCC(=O)NC2CC(=O)N(c3cccc(OC)c3)C2)c1 (centres undefined)
25	-9%	CC(=O)N1CCc2cc(S(=O)(=O)NC(CC(C)C)C(=O)NCCc3cccc(C)c3)ccc21 (centres undefined)

# Molecules from the list above with a Cl atom (2):
No.	VDR inh	canonical_smiles
4	-7%	O=C(CNc1ccc2c(c1)OCO2)N/N=C\c1ccccc1Cl
7	10%	Cc1ccc(S(=O)(=O)N2CCOCC2)cc1NC(=O)C(c1ccc(Cl)cc1)C(C)C (centres undefined)

# The listing picks up; the four compounds before the break are reprinted first.
No.	VDR inh	canonical_smiles
22	6%	NC(=O)COc1ccc(C23CC4CC(CC(C4)C2)C3)cc1
23	17%	CC(C)P(=O)(Cc1cccc(C#N)c1)C(C)C
24	16%	COc1cccc(OCC(=O)NC2CC(=O)N(c3cccc(OC)c3)C2)c1 (centres undefined)
25	-9%	CC(=O)N1CCc2cc(S(=O)(=O)NC(CC(C)C)C(=O)NCCc3cccc(C)c3)ccc21 (centres undefined)
26	-11%	Cc1ccc(S(=O)(=O)NCCC(=O)NC2CCC(C)CC2)cc1 (centres undefined)
27	-2%	O=C(CSc1nc2c(sc3ccccc32)c(=O)n1CCCN1CCCC1)NCc1ccco1
28	-7%	CC(C)N1CN=C(Nc2nc3ccccc3o2)NC1
29	6%	O=C(C[n+]1ccccc1)Nc1c(Cl)cc(Cl)cc1Cl
30	1%	Cc1cccc(NC(=O)Nc2nnc(N3CCCCC3C)s2)c1C (centres undefined)
31	-12%	Cc1ccc(-n2nnnc2SCC(=O)Nc2sccc2C#N)cc1
32	-9%	CSc1nc(C)nc(N/C=C(\C#N)S(=O)(=O)c2ccccc2Cl)n1
33	-8%	CCN1C(=O)c2ccccc2S(=O)c2ccc(C(=O)NCCCN3CCCC3=O)cc21 (centres undefined)
34	6%	Cc1cccc(C)c1OCCNC(=O)C(=O)NCc1ccco1
35	-13%	Cc1ccc(CNC(=O)CCC2CCCN(Cc3cccc4ncccc34)C2)o1 (centres undefined)
36	-17%	CCOc1cc(NC(=S)NCCCN2CCOCC2)c(OCC)cc1NC(=O)C(C)C
37	1%	COc1cccc(NC(=O)CSc2nc3ccccc3nc2N2CCCC2)c1
38	-7%	COc1ccc(S(=O)(=O)Nc2cc(C(=O)NCCCOC(C)C)ccc2N2CCOCC2)cc1
39	-4%	COc1ccc(OCC(=O)Nc2cc(OC)cc(OC)c2)cc1
40	0%	CCC1(c2ccc(Cl)cc2)NC(=O)N(Cc2ccc(C(=O)OC)cc2)C1=O (centres undefined)
41	4%	Cc1ccc(CNC(=O)Nc2cc(C(=O)NCc3cccc(F)c3)ccc2N2CCCC2)cc1
42	5%	NC(=O)c1nnn(-c2cccc(C(F)(F)F)c2)c1-c1ccccc1
43	-13%	OC(CSc1ccccc1)CN1CCN(c2cccc(Cl)c2)CC1 (centres undefined)
44	1%	CCCCOc1ccc(/C(O)=C2/C(=O)C(=O)N(Cc3cccnc3)C2c2ccncc2)c(C)c1 (centres undefined)
45	-19%	Cc1cc(C)c2c(n1)sc1c(-c3ccccc3)c(C#N)c(N)nc12
46	14%	Cc1ccc(-c2nn(-c3cccc(F)c3)cc2CN(Cc2nccn2C)C(C)C)o1
47	-6%	CCCc1[nH]nc2c1C(c1ccc(O)c(OC)c1)C(C#N)=C(N)O2 (centres undefined)
48	-6%	COc1ncnc2c1oc1nc(CC(C)C)c3c(c12)CCCC3
49	0%	O=C(COn1nnc2ccc(Cl)cc21)NC1CCS(=O)(=O)C1 (centres undefined)
50	8%	CCC(C)(C)n1nnnc1C(C(C)C)N(Cc1ccco1)Cc1cc2cc3c(cc2[nH]c1=O)OCO3 (centres undefined)

# Quoted from above (5 entries):
No.	VDR inh	canonical_smiles
1	14%	COc1ccc(N2C(=O)C3CCCCC3C2=O)cc1NC(=O)c1ccccc1 (centres undefined)
2	1%	O=C(Nn1c(-c2ccc(F)cc2)nc2ccccc2c1=O)C1CCCCC1
3	-14%	Cc1ccc(N=Nc2c(N)n[nH]c2N)cc1
4	-7%	O=C(CNc1ccc2c(c1)OCO2)N/N=C\c1ccccc1Cl
5	-9%	Cc1ccc(C(=O)Nc2ccc(S(=O)(=O)N3CCOCC3)cc2)cc1C

# Next part:
No.	VDR inh	canonical_smiles
51	10%	O=C(CS(=O)CC(=O)N(c1cccc(F)c1)C(C(=O)NC1CCCCC1)c1ccco1)Nc1ccc(F)cc1 (centres undefined)
52	-15%	COc1cc(C(=O)Nn2c(C)nc3ccccc3c2=O)cc(OC)c1OC
53	13%	Cc1cc(C(=O)CSc2ncccn2)c(C)n1Cc1ccco1
54	-7%	Cc1occc1-c1nnc(SCC(=O)Nc2nc(-c3ccccc3)cs2)o1
55	-6%	COc1cccc(C(=O)Nc2ccccc2N2CCN(C(=O)c3ccccc3)CC2)c1
56	-5%&-13%	Cc1ccc(NC(=O)c2cc(S(=O)(=O)NCCC3=CCCCC3)ccc2F)cc1F
57	1%	O=C(Cn1nnc2c(cnn2-c2ccccc2)c1=O)NCc1cccs1
58	-22%	C=CCn1c(CNC(=O)c2cccs2)nnc1SCC(=O)c1ccc(Br)cc1
59	-26%	O=C(/C=C\Nc1ccc(S(=O)(=O)Nc2ncccn2)cc1)c1cccc2ccccc12
60	3%	COCCNC(=O)C(c1ccccc1C)N(CCOC)C(=O)Cn1nnc2ccccc21 (centres undefined)
61	-10%	CCOC(=O)c1ccc(COc2nc3ccccc3nc2-c2ccccc2NC(C)=O)o1
62	13%	CCOc1ccc(S(=O)(=O)NCCC(=O)N2CC(C)CC(C)C2)cc1 (centres undefined)
63	-8%	Cc1cccc(C2=N/C(=C\c3cccnc3)C(=O)O2)c1
64	-15%	CCOc1cc(CN2CCN(CCc3ccccc3)C(CCO)C2)ccc1OC (centres undefined)
65	?	O=C1OC(Nc2ccc(F)c([N+](=O)[O-])c2)c2ccccc21 (centres undefined)
66	-3%	O=C(NCc1ccccn1)c1cccc(NS(=O)(=O)c2cccc(F)c2)c1
67	-7%	c1ccc(Cn2nnnc2-c2ccco2)cc1
68	?	CC[C@]12c3[nH]c4cc(-c5ccco5)ccc4c3CCN1C(=O)[C@@H](CC(=O)NCCc1ccccn1)C[C@@H]2C(=O)N1CCN(C(=O)c2ccco2)CC1
69	1%	COc1ccccc1N1CCN(S(=O)(=O)CCNC(=O)c2ccccc2Br)CC1
70	-6%	Cc1cccc(C)c1NC(=S)N(C)CCc1ccccn1
71	5%	O=C(NCc1ccc(F)cc1)c1ccc2c(c1)nnn2C1CCCC1
72	?	Nc1c(-c2ccccc2)c(CSc2nc3ccccc3[nH]2)nn1-c1ccc(C(=O)O)cc1
73	-30%	COc1ccc(OC)c2c(C)cc(N3CCCCCC3)nc12
74	-10%	O=C(c1ccc(-c2ccccc2Cl)o1)N1CCN(S(=O)(=O)c2cccs2)CC1
75	-11%	CCc1nc(SCC(=O)Nc2ccc([N+](=O)[O-])cc2)n[nH]1

# In another format: entries from further up.
(58) C=CCn1c(CNC(=O)c2cccs2)nnc1SCC(=O)c1ccc(Br)cc1
  VDR inh = -22%
(59) O=C(/C=C\Nc1ccc(S(=O)(=O)Nc2ncccn2)cc1)c1cccc2ccccc12
  VDR inh = -26%
(60) COCCNC(=O)C(c1ccccc1C)N(CCOC)C(=O)Cn1nnc2ccccc21 (centres undefined)
  VDR inh = 3%

# Next records.
No.	VDR inh	canonical_smiles
76	6%	C=C(C)Cc1c(C)c(C#N)c2[nH]c3ccccc3n2c1=O
77	0%	CCN(CC)C(=O)C1CCN(c2nnc(C)c3c(C)n(-c4ccc(Cl)cc4)nc23)CC1
78	5%	O=C(C1CCCN(S(=O)(=O)c2ccc(Br)s2)C1)N1CCCCCC1 (centres undefined)
79	12%	CC(Sc1nnc(-c2ccco2)n1C)C(=O)NC1CCCC1 (centres undefined)
80	0%	CCOC(=O)CC(=O)CSc1nnc(Cn2c(=O)sc3ccccc32)n1C
81	-8%	Nc1[nH]nc2nc3ccccc3cc12
82	18%	O=S(=O)(c1cc(F)ccc1F)N1CCC2(CC1)OCCN2S(=O)(=O)c1ccccc1
83	-13%	CCCOc1ccc(C2/C(=C(\O)c3c(C)[nH]c(C(=O)OC)c3C)C(=O)C(=O)N2CCN(C)C)cc1 (centres undefined)
84	3%	Cc1ccc(-n2ncc(C(=O)N3CCN(c4ccc(Cl)cc4)CC3)c2C2CCN(C(=O)OC(C)(C)C)CC2)c(C)c1
85	4%	CN1CCN(C(=O)c2ccc3c(c2)NC(=O)C(N2CCOCC2)S3)CC1 (centres undefined)
86	-25%	O=C(O)CNc1nc(-c2ccccc2)c2cc([N+](=O)[O-])ccc2n1
87	-12%	CC(C)CCOc1ccc(C2CC(=O)N(C)C2=O)cc1 (centres undefined)
88	-23%	COC(=O)c1nn(-c2ccc(C)cc2)c2nnc(Cc3ccccc3)c(=O)n12
89	-7%	O=C1C2C3c4ccccc4C(c4ccccc43)C2C(=O)N1c1cccc2cccnc12 (centres undefined)
90	-3%	COc1ccccc1C(=O)Nc1ccnn1C1CCN(C(=O)c2ccoc2C)CC1
91	2%	Cc1ccccc1N1CC(C(=O)N2CCc3ccccc32)CC1=O (centres undefined)
92	0%	Cc1ccc(C)c(N(C)C(=O)c2coc(=O)c3ccccc23)c1
93	0%	Cc1noc(C)c1CSc1nnc(-c2ccccc2F)n1CCc1ccccc1
94	13%	NC(CC(=O)O)c1ccc(Br)cc1 (centres undefined)
95	-6%	O=C1CN(c2ccc(Cl)cc2)C2(CCCCC2)S1
96	-14%	COc1cc(OC)cc(C(=O)Nc2ccccc2C(=O)NC2CC2)c1
97	-26%	Cc1cc(S(=O)(=O)NCC(C)C)ccc1OCC(=O)NCC1CCCO1 (centres undefined)
98	5%	COc1ccc(CCNC(=O)c2cc3c(s2)-c2c(C)cccc2OC3)c(OC)c1
99	-4%	Cc1cccc(N2CCN(C(=O)COc3cc4oc(=O)cc(C)c4cc3Cl)CC2)c1C
100	-20%	CC1CCN(c2oc(-c3ccc(F)cc3)nc2C#N)CC1
101	-6%	OCC[C@H]1C[C@H](O)[C@@H](O)[C@]2(CCCCO2)O1
102	16%	CC(=O)c1c(C)nc(-c2ccc(OCC(=O)Nc3ccccc3)cc2)n1O
103	-6%	COc1ccc(C)cc1NC(=O)c1cc2ccccn2n1
104	7%	Cc1cc(C)cc(NC(=O)Cn2c(=O)n(Cc3ccco3)c(=O)c3oc4ccccc4c32)c1
105	-5%	COC(=O)c1cn(C(=O)c2ccccc2Cl)c2ccccc12
106	?	COc1cc([N+](=O)[O-])ccc1-c1ccc(/C=C2\C(=O)ON=C2c2ccccc2)o1
107	50µM*	CC1(C)[C@@H]2CC[C@]1(C)[C@@H](OC(=O)CSC#N)C2
108	-12%	CC(C)(C)c1ccc(C(=O)CCC(=O)OCC(=O)NCCc2ccc(S(N)(=O)=O)cc2)cc1
109	-16%	Cc1ccccc1CNC(=O)C(=O)NCC1CCCN1S(=O)(=O)c1cccs1 (centres undefined)
110	-6%	COc1ccc(C(=O)NCC(=O)OCC(=O)c2c(C)[nH]c3ccccc23)cc1OC
111	17%	CNS(=O)(=O)c1cccc(C(=O)OCC(=O)N2CC(C)OC(C)C2)c1 (centres undefined)
112	11%	Cc1cccc(N2CCN(c3ncnc4c3c(-c3ccccc3)cn4-c3ccccc3)CC2C)c1 (centres undefined)
113	1%	O=C(N1CCN(c2ccccc2F)CC1)C12CC3CC(CC(C3)C1)C2
114	-5%	Cc1ccc(-n2nc(C(=O)NCc3ccc(C)o3)c3c4ccccc4n(C)c3c2=O)cc1
115	10%	CCOc1ccccc1CNC(=O)c1ccc(NC(=O)N2CCSc3ncccc32)cc1
116	6%	COc1ccc(/C=C/C(=O)NC(=S)NNC(=O)Cc2cccs2)cc1OC
117	-2%	CCC(C)NC(=O)CNC(=O)Cn1c(C)cc2ccccc2c1=O (centres undefined)
118	-7%	CCC(N)C12CC3CC(CC(O)(C3)C1)C2 (centres undefined)
